ALR H2O2 inh: inhibitors of human sulfhydryl oxidase ALR; P55789; purified ALR, DTT oxidation, H2O2 HRP-luminol luminescence; inhibition, % (test concentration not listed); actives 3.8% (n = 290,000);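 active = mean and each replicate at 75% or more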;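 note: stock transfer was 7.5 nL into about 7.5 µL; 0% = neutral wells and 100% = wells with inactivated enzyme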
Beta2AR agonist: human beta-2 adrenergic receptor agonism by FAP. actives 0.43% (n = 340,000). Am2.2-beta2AR cells, FAP receptor internalization, flow cytometry; reference of the scale not given here. response, % (concentration not given with the values);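 active = response above a set limit, near 3 SD of response in nonfluorescent compounds, cut at about 42% in these data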;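 note: stock transfer was 100 nL into about 11 µL; a reference agonist was the positive control; negative values mostly stem from fluorescent compounds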
Target sequence (P07550 whole entry, looked up): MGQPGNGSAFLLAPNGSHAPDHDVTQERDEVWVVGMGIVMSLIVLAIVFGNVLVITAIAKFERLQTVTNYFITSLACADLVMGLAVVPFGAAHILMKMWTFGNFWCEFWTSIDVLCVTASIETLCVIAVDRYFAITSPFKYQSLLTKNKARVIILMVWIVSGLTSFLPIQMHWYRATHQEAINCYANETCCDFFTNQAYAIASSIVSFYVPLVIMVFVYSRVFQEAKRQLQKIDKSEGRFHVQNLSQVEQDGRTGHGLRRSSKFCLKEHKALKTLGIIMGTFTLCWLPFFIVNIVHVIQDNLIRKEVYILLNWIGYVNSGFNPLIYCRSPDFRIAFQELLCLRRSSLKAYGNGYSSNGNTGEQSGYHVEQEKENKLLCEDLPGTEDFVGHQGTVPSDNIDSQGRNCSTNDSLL
HNF4A DNA FP: change in binding of human HNF4 alpha to DNA; P41235; HNF4a-FITC DNA binding, fluorescence polarization, 1 h; activity change, % at 10 µM; actives 0.3% (n = 360,000); AID 1224865; in the data active = activity change above about 30%, passing the limit was not always enough;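 note: controls were the assay level and a saturating level of protein; the project sought stronger binding though the title names inhibitors; some compounds called inactive have numbers as strong as hits; positive values seem to mean higher polarization but the record does not say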
FGF22 binding: binders of recombinant human FGF22 by thermal shift; actives 1.5% (n = 340,000); SYPRO orange fluorescence; percent of sucrose octasulfate shift, DMSO zero; calls only at 9.99 µM; AID 651658; Q9HCT0;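 active = melting point raised past a set limit in the mean and every replicate; three in four hits are not shown here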
Target sequence (Q9HCT0 whole entry, looked up): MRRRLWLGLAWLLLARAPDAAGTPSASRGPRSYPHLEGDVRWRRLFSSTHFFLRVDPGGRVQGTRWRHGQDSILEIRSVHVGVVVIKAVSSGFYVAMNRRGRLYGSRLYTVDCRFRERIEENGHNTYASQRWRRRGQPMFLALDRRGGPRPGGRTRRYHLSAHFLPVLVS
Ecoli growth: blocks Escherichia coli growth | actives 0.21% (n = 330,000) | AID 1053175 | OD600, 23 h; active compounds read low | OD600 absorbance (no concentration beside the values);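 active = OD600 absorbance below the run mean of sample wells minus 3.6 SD, in any replicate, cut at about 0.56 in these data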;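 note: stock transfer was 300 nL into about 60 µL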
LANA-H2A inh: blocks KSHV LANA binding to histone H2A/H2B; cell-free LANA-H2A/H2B peptide, fluorescence polarization; inhibition, % (no concentration beside the values); actives 0.6% (n = 320,000); in the data active = inhibition mostly above about 10%, no sharp cut-off; inactive = mostly below about 6.7%;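 note: stock transfer was 7.5 nL into about 10 µL; 0% = median of vehicle wells and 100% = median of positive control wells; one replicate is shown; the record names a cut of 25% in any replicate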
UCH37 DUB inh: inhibitors of human deubiquitinating enzyme UCH37; actives 0.33% (n = 330,000); inhibition, % (test concentration not listed); purified proteasome/UCH37, Ub-AMC cleavage fluorescence; Q9Y5K5;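 active = mean of two replicates above 20%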;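 note: 0% = compound-free wells with enzyme and 100% = wells lacking proteasome; stock transfer was 100 nL into about 20 µL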
Target sequence (Q9Y5K5 whole entry, looked up): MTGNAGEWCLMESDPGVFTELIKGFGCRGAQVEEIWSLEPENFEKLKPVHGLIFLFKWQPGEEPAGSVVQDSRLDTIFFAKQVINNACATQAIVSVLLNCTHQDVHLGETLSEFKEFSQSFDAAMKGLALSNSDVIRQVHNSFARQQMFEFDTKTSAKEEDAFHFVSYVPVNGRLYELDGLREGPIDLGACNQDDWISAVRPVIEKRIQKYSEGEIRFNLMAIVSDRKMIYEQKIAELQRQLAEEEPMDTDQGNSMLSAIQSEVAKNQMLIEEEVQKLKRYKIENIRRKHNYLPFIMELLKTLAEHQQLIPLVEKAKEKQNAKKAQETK
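Material: human UCH37 enzyme supplied as purified proteasome complex. Measure: % inhibition of Ub-AMC cleavage fluorescence. Medium: pH 7.4 Tris-HCl (50 mM) with ovalbumin, ATP-MgCl2, DTT. Times: 30 min preincubation with enzyme, 25 min cleavage at room temperature. Detection: AMC fluorescence intensity at 355/460 nm.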
Starred values were filed as active, the others as inactive; i = inactive; nt = no result given; & = joins results of further samples.

SMILES	ALR H2O2 inh	Beta2AR agonist	HNF4A DNA FP	FGF22 binding	Ecoli growth	LANA-H2A inh	UCH37 DUB inh
O=C1CC(c2ccc(F)cc2)CC(O)=C1C=NCCN1CCNCC1 (centres undefined)	-4.9	3.2	1.9	nt	0.723	17.1*	4.4
O=C(CNC(=O)c1ccccc1Br)N/N=C/c1cccs1	nt	-5.9	-0.4	i	nt	1.3	nt
CN1C(=O)c2ccccc2C(C(=O)O)C1c1cccc(Cl)c1 (centres undefined)	0.5	-12.8	2.9	nt	0.685	3.2	-2.6
Cn1c(-c2ccc(Br)o2)nc2cc(Br)ccc21	65.5	-2.7	-3.3	nt	0.741	0.9	1.3
Cc1ccsc1CN(C)C(=O)CN1C(=O)NC2(CCCc3ccccc32)C1=O (centres undefined)	3.9	5.3	2.9	i	0.693	-1.5	1.0
Cc1cc(C)n(CCC(=O)N/N=C/c2cccc([N+](=O)[O-])c2)n1	21.3	-2.7	1.7	i	nt	-3.5	nt
O=C(CNC(=O)c1ccccc1F)c1ccccc1	1.9	-2.8	-1.8	i	0.667	0.1	2.7
CC1CC(=O)C=C(O)C1C(=O)OC(C)(C)C (centres undefined)	-1.2	2.6	-2.2	nt	0.736	-3.2	1.9
CCSc1ncc(Cl)c(C(=O)Nc2sc3c(c2C(=O)NCc2cccnc2)CCCC3)n1	-3.4	18.9	51.4*	nt	0.696	-4.0	3.5
c1ccc(C2=Nc3ccccc3NC(c3ccccc3)C2)cc1 (centres undefined)	0.2	15.7	18.7	nt	0.689	1.8	2.9
CC(C)Cn1c(=O)c2ccccc2c2ccccc2c1=O	-1.6	8.1	-2.7	i	0.72	-0.7	3.1
CCN(CC)Cc1c(C(=O)OC)nnn1-c1nonc1N	-11.5	6.7	0.5	nt	0.759	-1.1	1.5

Reprinted from the part before: two entries, followed by the next part.
SMILES	ALR H2O2 inh	Beta2AR agonist	HNF4A DNA FP	FGF22 binding	Ecoli growth	LANA-H2A inh	UCH37 DUB inh
CC(C)Cn1c(=O)c2ccccc2c2ccccc2c1=O	-1.6	8.1	-2.7	i	0.72	-0.7	3.1
CCN(CC)Cc1c(C(=O)OC)nnn1-c1nonc1N	-11.5	6.7	0.5	nt	0.759	-1.1	1.5
Nc1nc2ccccc2n1C(=O)c1cccs1	-2.2	-13.6	4.3	i	nt	0.1	nt
CCOC(=O)CCNC(=O)Nc1ccc2nc(C)n(Cc3ccccc3Cl)c(=O)c2c1	-5.8	0.7	1.5	nt	0.715	7.3	-1.4
COc1cc(NC(=O)c2cncc(-c3ccc(C#N)cc3)c2)cc(C(=O)Nc2cccc(C(F)(F)F)c2)c1	2.8	-0.1	4.2&1.7	i	0.646	1.8	1.7
Cc1cc(N2C(=O)C(=O)/C(=C(/O)c3ccccc3)C2c2cccs2)no1 (centres undefined)	1.6	-7.3	-0.7	nt	0.697	-5.2	10.6
O=C(Nc1ccc(Cl)cc1Cl)c1ccc2c(=O)n3c(nc2c1)CCC3	-6.1	-3.0	-1.4	i	0.647	7.0	-0.2
COc1ccccc1NC(=O)NC(=O)N(C(C)C)S(C)(=O)=O	-6.9	-2.0	3.6	nt	0.749	-2.8	5.2
CCCCC(=O)Nc1ccc(C(=O)Nc2cc(C(F)(F)F)ccc2Cl)cc1	nt	-10.7	-0.2	nt	0.7	6.8	3.3
O=C(C1CCCN(Cc2ccccc2F)C1)N1CCCC1 (centres undefined)	nt	-3.1	0.2	i	0.67	-4.6	2.0
COc1ccc(CCNC(=O)C(CCC(N)=O)NS(=O)(=O)c2ccc(Cl)cc2)cc1OC (centres undefined)	nt	-5.5	-0.9	i	0.633	1.8	4.7
CCc1nn(C(CC)C(=O)NCCCN2CC(C)CC(C)C2)c(=O)c2cc3oc(C)cc3n12 (centres undefined)	-8.3	11.4	1.1	i	0.677	5.4	1.7
COc1ccc(C2=NOC(C(=O)Nc3cccnc3)C2)cc1 (centres undefined)	-5.6	-3.2	-0.5	nt	0.654	0.1	2.1
Cc1ccccc1-c1cc(C(=O)NCc2cccc(C(F)(F)F)c2)nn1CC1CC(c2cccc([N+](=O)[O-])c2)=NO1 (centres undefined)	-1.3	2.4	-8.7	i	0.709	-3.5	34.8*
COc1ccc2nc(/N=C(\N)NC(=O)Nc3ccccc3)nc(C)c2c1	-5.8	-1.6	0.8	nt	nt	-2.5	nt
Cc1ccc(-c2n[nH]c(=O)c3ccccc23)cc1S(=O)(=O)NCCN1CCOCC1	-3.5	-1.1	2.2	nt	0.694	0.7	1.5
Cc1ccccc1N1CCN(C2CCCN(C(=O)CCC(F)(F)F)C2)CC1 (centres undefined)	10.2	1.2	-2.8	i	0.662	3.2	4.0
COc1ccc(NC(=O)COC(=O)[C@@H]2CCCN2C(=O)c2cccs2)c(OC)c1	2.6	4.3	-0.9	nt	0.729	-1.9	0.6
CCNS(=O)(=O)c1ccc(C(=O)OCc2cc(=O)oc3cc(OC)ccc23)cc1	2.2	5.0	0.0	nt	0.655	2.6	-42.4
CN(C)c1ccc(P(=O)(OC2CCCCC2)C(O)c2ccncc2)cc1 (centres undefined)	-36.8	-1.3	-4.2	i	0.687	-7.1	8.1
CCOc1cc(/C=N\NC(=O)c2c(C)nc3ccccn23)ccc1O	88.8*	-8.6	-0.7	i	nt	5.4	nt
CCOC(=O)c1ccc(NC(=O)CNC(=O)C23CC4CC(CC(C4)C2)C3)cc1	-5.9	3.2	5.5	i	0.703	0.0	0.2
CCCNc1cc(C)oc(=O)c1C(=O)CCC	-5.7	-10.7	0.4	nt	0.719	0.0	1.6
C/C(=N/NC(=O)c1ccccc1O)c1ccc(N2C(=O)C3CCCCC3C2=O)cc1 (centres undefined)	25.2	-1.2	0.2	nt	nt	0.2	nt
CC(C)[C@H](NC(=O)c1ccco1)C(=O)OCC(=O)Nc1cccc(F)c1	-4.8	5.1	4.5	i	0.722	-4.7	3.0
COc1cccc(-c2nn(C)c3sc(C(=O)NCc4ccc(C)o4)cc23)c1	2.0	25.8	1.3	nt	0.763	1.1	-16.8
COc1ccccc1NC(=O)c1ccc(NC(=O)COC(=O)C2(C)CC2(Cl)Cl)cc1 (centres undefined)	-2.7	-4.8	-0.6	nt	0.668	0.5	3.1
CCOC(=O)C1=C(O)/C(=C\c2sccc2C)N=C1C	-7.4	-11.7	-2.4	i	0.643	2.6	12.3
CNC(=O)N(O)C1N(NC(=O)Nc2ccccc2)C(=S)SC1(C)C (centres undefined)	4.5	-2.7	6.4	i	0.666	1.5	5.9
O=C1CC2CC1C(C(=O)O)C2C(=O)O (centres undefined)	nt	-5.3	-5.2	i	nt	nt	nt
COC(=O)c1cnc(Nc2cc(C)ccc2OC)c2ccccc12	-7.7	6.2	0.1	i	0.686	-2.3	-21.1
Fc1cccc(-c2cc3nc4c(c(N5CCC6(CC5)OCCO6)n3n2)CCCC4)c1	nt	11.5	-3.1	nt	0.683	nt	-48.1
CCCCC(=O)Nc1cccc(-c2cn3ccsc3n2)c1	-7.9	-5.0	-1.9	nt	0.599	-8.2	0.8
N#CC1=C(Nc2ccc(Br)cc2)CCC1	39.7	1.1	1.7	nt	0.625	-0.8	2.4
Cc1cc(O)c(C=Nc2ccc(N3CCOCC3)cc2)c(C)c1Cl	59.6	5.0	18.4	i	0.708	-2.5	3.7
CCOC(=O)c1c(C)[nH]c(C(=O)OCc2ccc(F)cc2)c1C	-13.3	8.9	0.4	i	0.708	0.5	2.0
COc1cc(/C=C2\C(=O)ON=C2c2ccccc2)cc(Cl)c1O	98.8*	-91.8	-2.2	nt	0.68	2.9	5.2
COc1ccc(C(=O)NNC(=O)c2cccc(F)c2)cc1	-0.3	1.0	0.6	i	0.701	-5.7	0.9
Cc1cc2ncn(S(=O)(=O)N3CCOCC3)c2cc1C	20.4	-1.4	1.9	nt	0.651	-1.5	0.8
Clc1ccc(Cc2noc(Cc3ccccc3)n2)cc1Cl	0.2	-6.5	3.0	nt	0.659	4.4	2.1
O=C1C(C2=NC(C(=O)O)C3C(=O)N(c4ccc(Cl)cc4)C(=O)C23)=C(O)c2ccccc21 (centres undefined)	-2.2	7.1	-2.7	nt	0.671	-1.3	10.7
O=C(O)CCC(=O)N1N=C(c2cccs2)CC1c1ccc(Br)cc1 (centres undefined)	2.9	13.1	-0.3	i	0.643	-4.7	-6.3
CCCc1cc(=O)[nH]c(SCC(=O)N2CCCC2=O)n1	nt	-1.2	-0.1	i	0.684	0.6	0.3
CCCOc1ccc(Cl)cc1CN1CCOCC1	-6.3	6.0	1.3	nt	0.69	0.0	0.3
Cc1nn(-c2ccccc2)c(C)c1C(=O)NNC(=O)C(F)(F)F	nt	1.0	2.8	i	0.654	-0.4	2.0
CC1(C)CC(=O)C/C(=N\NC(=O)c2cccs2)C1	43.2	-2.9	-0.9	nt	nt	1.9	nt
CSc1nc(C)cc(NC(N)=O)n1	nt	-5.5	-2.2	nt	0.727	nt	-0.2
Cc1ccc(N2C(=O)CC(N(CCc3ccccc3)C(=S)Nc3ccc(N(C)C)cc3)C2=O)cc1 (centres undefined)	-5.6	-2.9	2.1	nt	0.753	2.3	3.1
CCOC(=O)C1(Cc2ccccc2)CCCN(CCCn2cccn2)C1 (centres undefined)	6.5	5.6	1.3	nt	0.653	-4.9	1.8
COc1ccccc1C(=O)Nc1nc2nc(-c3ccccc3)cc(=O)n2[nH]1	97.8*	-3.2	-1.1	nt	0.689	-1.3	1.3

5 consecutive compounds already listed:
SMILES	ALR H2O2 inh	Beta2AR agonist	HNF4A DNA FP	FGF22 binding	Ecoli growth	LANA-H2A inh	UCH37 DUB inh
Cc1nn(-c2ccccc2)c(C)c1C(=O)NNC(=O)C(F)(F)F	nt	1.0	2.8	i	0.654	-0.4	2.0
CC1(C)CC(=O)C/C(=N\NC(=O)c2cccs2)C1	43.2	-2.9	-0.9	nt	nt	1.9	nt
CSc1nc(C)cc(NC(N)=O)n1	nt	-5.5	-2.2	nt	0.727	nt	-0.2
Cc1ccc(N2C(=O)CC(N(CCc3ccccc3)C(=S)Nc3ccc(N(C)C)cc3)C2=O)cc1 (centres undefined)	-5.6	-2.9	2.1	nt	0.753	2.3	3.1
CCOC(=O)C1(Cc2ccccc2)CCCN(CCCn2cccn2)C1 (centres undefined)	6.5	5.6	1.3	nt	0.653	-4.9	1.8

Following part.
SMILES	ALR H2O2 inh	Beta2AR agonist	HNF4A DNA FP	FGF22 binding	Ecoli growth	LANA-H2A inh	UCH37 DUB inh
Cc1sc2nc(C(C)C)nc(SCC(=O)N3c4ccccc4CC3C)c2c1C (centres undefined)	-4.0	-0.9	0.7	nt	0.735	-1.2	1.5
Cc1cc(/C=C(/C#N)c2nc3ccccc3[nH]2)c(C)n1-c1cccc([N+](=O)[O-])c1	-1.3	21.4	-2.1	nt	0.751	-0.6	5.7
O=C(NC1CC1)c1ccc(S(=O)(=O)NC2CCCCCC2)cc1	-3.6	-19.0	0.6	nt	0.71	3.5	4.5
Cc1c(C(=O)N2CCN(C(c3ccccc3)c3ccccc3)CC2)oc2ccccc12	nt	8.3	0.6	i	0.696	1.6	0.8
Cc1ccc(C(=O)NCCc2nc3ccccc3[nH]2)cc1[N+](=O)[O-]	0.0	-16.4	0.3	nt	0.645	1.8	1.2
CCCCN(C(=O)CSCc1ccc(C)cc1)c1c(N)n(Cc2ccccc2)c(=O)[nH]c1=O	nt	-0.8	2.1	i	0.72	nt	3.6
[O-]/[N+](=C\c1ccncc1)c1ccccc1	12.5	-3.5	4.0	nt	0.689	11.3	6.0
COc1ccc2oc(CS(=O)c3ccccc3)c(C(=O)O)c2c1 (centres undefined)	-4.0	-15.7	1.1	i	0.678	0.8	4.5
O=c1c2[nH]cnc2n(-c2cccc(F)c2)c(=O)n1Cc1ccccc1	2.2	2.6	0.4	i	0.686	-3.5	1.6
CCN(CC)C(=O)CSc1ncnc2sc(C)c(C)c12	1.9	-18.6	4.4	i	nt	-1.6	nt
O=C(CSc1nnc(Cc2cccs2)n1C1CC1)NC1CCS(=O)(=O)C1 (centres undefined)	-3.8	-11.4	-4.7	i	0.681	6.1	4.0
Cc1cc(C(N)=O)nn1-c1c(Cl)cc(Cl)cc1Cl	-6.1	2.3	4.6	i	0.65	-3.1	1.0
COc1ccc(NC(=O)C23CCC(C)(C(=O)C2)C3(C)C)cc1 (centres undefined)	-0.9	-0.1	-1.8	nt	0.661	-0.9	1.8

This is a subset; rates above refer to the full screens.
